MT1-MMP act inh: blockers of MT1-MMP proenzyme processing, primary screen, HT1080 RFP-PRO-GFP cells, GFP/RFP fluorescence. Matrix metalloproteinase-14 (Homo sapiens), P50281. GFP/RFP ratio fluorescence, overnight; percent of plate control window, DMSO zero. GFP/RFP ratio change, % at 20 µM. 360,000 compounds, 0.061% hits. AID 651647, 2012;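 active = GFP/RFP ratio change of at least 30% with cell ATP level not reduced by more than half and red fluorescence within 50% of control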; note: strong numbers were not always called active
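Material: RFP-PRO-GFP reporter HT1080 cells. Dosing: single-point 20 µM compound, 1% DMSO. Controls: DMSO and RFP-L50D-GFP cell wells. Timing: cells overnight before dosing, compound overnight, 37 °C, 5% CO2. Measure: GFP/RFP fluorescence ratio.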
Yeast UUG start: modulators of yeast start codon fidelity, primary screen, whole organism, S. cerevisiae, single point, plate reader; S. cerevisiae UUG-firefly luciferase reporter, luminescence/redox ratio; 350,000 compounds, 0.13% hits; activity score, % at 18.7 µM;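 active = replicate mean at a twofold rise or more, about +100% in these data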;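 note: firefly luciferase made from a UUG start codon reports start codon fidelity; reporter light over untreated wells divided by growth signal over untreated wells; some hits fall short of that in this replicate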
eIF4H inh: human eIF4H binding inhibitors, primary screen, translation initiation inhibitor project, biochemical, uHTS, fluorescence polarization; Eukaryotic translation initiation factor 4H (Homo sapiens), Q15056; eIF4H fluorescence polarization binding assay; inhibition, % at 35 µM; 290,000 compounds, 0.94% hits; AID 2012, 2009;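 active = 50% or more with normal probe brightness, or confirmed in later tests; about a fifth of its hits are not listed in these tables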;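 note: calls also rest on retests at 20 µM and on dose response follow-up; 0% = protein and probe with vehicle and 100% = probe without protein; strong numbers were not always called active; many hits fall short of the cut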
Env fusion inh: inhibitors of HIV-1 Env-driven cell-cell fusion, primary screen, HeLa-JRFL effector, CEM21 target cells, luciferase; inhibition, % at 12.3 µM; 360,000 compounds, 1.1% hits;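 active = mean replicate inhibition score of at least 50 and every replicate individually at or above 50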;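 note: 0% = plate neutral controls and 100% = maraviroc near 300 nM; one replicate is shown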
PABP FP inh: PABP poly(A) RNA binding inhibitors, primary screen, biochemical, fluorescence polarization, uHTS; Polyadenylate-binding protein 1 (Homo sapiens), P11940; inhibition, % at 35 µM; 290,000 compounds, 1% hits;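 active = 50% or more with normal probe brightness, or confirmed in later tests; about a fifth of its hits are not listed in these tables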;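 note: calls also rest on retests at 20 µM and on dose response follow-up; controls were probe without protein and protein plus probe with vehicle; some compounds called inactive have numbers as strong as hits; many hits fall short of the cut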
Target sequence (P11940 whole entry, looked up): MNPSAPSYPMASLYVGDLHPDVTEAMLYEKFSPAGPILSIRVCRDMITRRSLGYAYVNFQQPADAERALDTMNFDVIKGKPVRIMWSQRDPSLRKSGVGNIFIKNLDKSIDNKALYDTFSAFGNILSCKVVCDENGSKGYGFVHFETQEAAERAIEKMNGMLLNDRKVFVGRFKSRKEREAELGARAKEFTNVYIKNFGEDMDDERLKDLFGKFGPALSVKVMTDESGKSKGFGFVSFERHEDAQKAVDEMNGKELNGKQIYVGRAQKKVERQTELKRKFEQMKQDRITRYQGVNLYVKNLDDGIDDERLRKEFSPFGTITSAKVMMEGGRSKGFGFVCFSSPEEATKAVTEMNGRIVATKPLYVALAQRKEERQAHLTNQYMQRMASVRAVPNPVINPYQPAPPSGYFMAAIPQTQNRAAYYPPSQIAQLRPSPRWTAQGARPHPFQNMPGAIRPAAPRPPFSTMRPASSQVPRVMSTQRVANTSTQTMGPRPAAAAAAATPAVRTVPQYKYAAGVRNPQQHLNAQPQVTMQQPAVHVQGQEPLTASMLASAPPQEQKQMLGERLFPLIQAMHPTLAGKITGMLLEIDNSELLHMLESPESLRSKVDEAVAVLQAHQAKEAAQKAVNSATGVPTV
Rce1 inh: yeast Rce1p protease inhibitors, primary screen, biochemical, fluorescence, cell-free homogeneous. yeast membranes, quenched prenylated peptide cleavage fluorescence. calls only. 290,000 compounds, 0.27% hits. AID 2563, 2010. CAAX prenyl protease 2 (Saccharomyces cerevisiae (strain ATCC 204508 / S288c)), Q03530;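 active = fall in fluorescence gain of 50% or more versus controls, with final raw signal at or below 3038400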;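 note: plate controls were neutral control wells for no effect and wells lacking membranes for full effect; tested at 10 µM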
Target sequence (Q03530 whole entry, looked up): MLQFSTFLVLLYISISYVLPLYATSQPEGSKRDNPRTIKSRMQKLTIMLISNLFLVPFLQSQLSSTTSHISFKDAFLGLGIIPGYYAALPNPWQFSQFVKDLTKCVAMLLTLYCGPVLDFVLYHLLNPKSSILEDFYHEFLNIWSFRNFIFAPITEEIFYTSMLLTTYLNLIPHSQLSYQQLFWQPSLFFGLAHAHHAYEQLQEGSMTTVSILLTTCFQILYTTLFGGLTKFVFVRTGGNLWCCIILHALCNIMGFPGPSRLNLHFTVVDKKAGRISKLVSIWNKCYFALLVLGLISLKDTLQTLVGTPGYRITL
CSC inhib: cancer stem cell viability inhibitors, primary screen, luminescence. inhibition, % at 7.5 µM. cancer stem cell-like cells viability. AID 2717, 2010. 300,000 compounds, 1.1% hits;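 active = mean at 75% or more and at least half the replicates too; tested in HMLE shEcad cells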;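 note: 0% = median of negative and 100% = median of positive control wells; the first replicate is given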
MT1-MMP act inh RFP: second read-out of MT1-MMP act inh, no call of its own (marks repeat the call); RFP signal change, %; measured here: RFP expression control read;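 0 = vehicle wells; hits needed this value within 50% of zero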
The depositor's hits bear a star; i = inactive; x = not tested or not shown.

SMILES	MT1-MMP act inh	MT1-MMP act inh RFP	Yeast UUG start	eIF4H inh	Env fusion inh	PABP FP inh	Rce1 inh	CSC inhib
O=C(NCCSc1ccccc1)c1ccccc1F	-4	-1	-11	x	-74	x	i	-5
O=S(=O)(NCc1cccs1)c1ccc(Br)cc1	-1	0	3	-2	-27	-10	i	-1
C/C(=N\NC(=O)c1nnn(-c2nonc2N)c1-c1ccccc1)c1ccco1	-2	2	4	7	4	-4	i	-12
Cc1cc(C)n2cc(CSc3nc4ccccc4s3)nc2n1	2	-1	x	-2	x	2	i	2
O=C(Nn1cnc2ccccc2c1=O)c1ccc([N+](=O)[O-])cc1	5	3	x	7	1	-5	i	-9
Cc1ccc(NC(=O)Cc2ccc3c(c2)CCCC3)cc1C	2	-5	-8	-4	x	1	i	-2
COc1ccc(NC(=O)CN(C)C(=O)c2c(-c3c(F)cccc3Cl)noc2C)cc1	-4	-2	-19	x	1	x	i	-4
Cc1cc(C(=O)N/N=C/c2cccc([N+](=O)[O-])c2)c(C)o1	5	3	-8	1	-34	-8	i	-3
CC1COC(C)(CC(=O)NN2C(=O)c3ccccc3C2=O)O1 (stereo not given)	-2	2	x	-1	-1	2	i	x
CC1CCCCN1C(=O)c1ccccc1OC1CCN(S(C)(=O)=O)CC1 (stereo not given)	1	5	x	-6	7	4	i	1
Cc1cccc(C)c1NC(=O)CN(C)C(=O)c1ccc(-c2cccc(C(F)(F)F)c2)o1	6	-7	-2	x	23	x	i	-6
COc1ccc(-c2[nH]c(-c3ccccc3)nc2SCC(=O)NC2CCCC2)cc1	2	-6	-19	-1	0	2	i	6
COc1ccccc1CN1C(=O)CN(C2CCCCCC2)C(=O)C1c1ccc(F)cc1 (stereo not given)	-14	-11	-12	7	82*	-2	i	-3
C=CCNC(=S)NNC(=O)c1ccncc1	0	-1	32	1	4	-2	i	0
Cc1c(C(=O)N2CCC(C(N)=O)CC2)oc2ccc(Br)cc12	0	0	-4	x	2	x	i	-9
CCc1ccccc1N(CC(=O)NC(C)(C)CC)C(=O)CCC(=O)Nc1nccs1	0	2	10	-12	-11	4	i	-4
Cc1cc(C)n2nc(C(=O)Nc3ccc4c(c3)OCCO4)nc2n1	0	3	-15	x	-2	x	x	-18
O=S(=O)(NCC1CCCO1)c1ccc(Br)cc1 (stereo not given)	-1	0	-5	-3	-8	-2	i	-13
COc1cccc(NC(=O)CN(C)C(=O)CNC(=O)c2ccc3ccccc3c2)c1	3	2	-13	x	x	x	i	0
CCC1CCCCN1C(=O)Nc1cccc(NC(=O)N2CCCCC2CC)c1 (stereo not given)	0	0	-9	-1	x	14	i	x
Cc1csc(NC(=O)Nc2cccc(Cl)c2)n1	-4	-4	-31	-6	-162	5	i	0
O=C(c1cc(F)ccc1F)C1CCCN(C(=O)CCc2cnccn2)C1 (stereo not given)	5	3	x	-4	-4	4	i	-8
CCC(C)Sc1nc2ccccc2c(=O)[nH]1 (stereo not given)	4	1	-5	3	x	9	i	-7
COc1ccc(S(=O)(=O)N(CC(=O)NCc2cccnc2)c2ccc(F)cc2)cc1OC	x	x	x	3	x	0	i	-3
COc1ccc(NC(=O)C(=O)NCCN2CCN(C(=O)c3ccc(C(C)(C)C)cc3)CC2)cc1	-7	-16	-7	-13	5	1	i	-2
O=C(Cn1c(=O)sc2ccccc21)OC(CCl)CCl	3	7	-4	-1	-33	10	i	12
COc1ccc(-c2cn3cccc(C)c3n2)cc1Br	6	-2	-25	-15	-190	1	i	-2
COc1ccc(OC)c(-c2nc(CN3CCN(C(=O)c4ccco4)CC3)c(C)o2)c1	-1	5	1	-4	-1	-2	i	-12
COc1cccc(S(=O)(=O)NCc2ccc(C(=O)N3CCN(c4ccccc4)CC3)cc2)c1	3	-3	11	0	-10	-10	i	17
COC(=O)c1ccc(/C=C/C(=O)OCC(=O)Nc2sccc2C(N)=O)cc1	2	-6	-10	x	x	x	x	2
COc1ccc(CC(=O)NCC2COc3ccccc3O2)cc1 (stereo not given)	0	1	-13	0	-20	4	i	x
Cc1ccccc1N1C(=O)c2cccc([N+](=O)[O-])c2C1=O	2	1	x	-5	13	6	x	x
CCOC(=O)CSC1=C(C#N)C(=O)NC(c2ccc(OC)c(OC)c2)S1 (stereo not given)	5	3	-15	-7	x	-2	i	x
COc1ccc(-c2nnc(SC)o2)c(OC)c1	3	5	x	6	-2	-2	x	-8
CCC1S/C(=N/N=C/c2ccco2)N(Cc2ccccc2)C1=O (stereo not given)	-2	-3	-23	-9	-13	9	i	3
O=C(c1ccc(Cl)nc1)N1CCN(S(=O)(=O)c2ccc(Cl)cc2)CC1	0	3	13	4	1	12	i	30
COc1ccccc1-c1cc(C(F)(F)F)c(C#N)c(=O)[nH]1	-2	-3	x	-7	3	-13	i	-9
Nc1cccc(-c2csc(-n3ncc(C(=O)O)c3C(F)(F)F)n2)c1	-2	0	-16	-14	2	9	i	4
COC(=O)c1sc2nc(CN3CCOCC3)nc(N3CCOCC3)c2c1C	-16	0	9	-3	x	-3	i	-4
Cc1cc(C)nc(SCc2nnc(SCC(=O)Nc3ccc(C)c(C)c3)o2)n1	-2	-8	0	-2	-114	8	i	x
CCOC(=O)c1cccc(NC(=O)c2ccco2)c1	0	-2	-14	-3	-42	-2	i	-3
O=C(Nc1cccc(OC(F)(F)F)c1)C1Cc2c(-c3ccccc3Oc3ccccc3)ccnc2O1 (stereo not given)	-2	-11	-1	x	59*	x	x	x
CC(O)CNc1ccc(-c2n[nH]c(=O)c3ccccc23)cc1[N+](=O)[O-] (stereo not given)	3	1	-6	10	25	-1	i	4
CCN(CC(=O)Nc1ccccc1C(F)(F)F)C(=O)COc1cccc2c1OC(C)(C)C2	1	2	7	x	20	x	i	-8
O=C(CCN1CCCC1)Nc1ccc(Br)cc1	0	4	4	-3	x	13	i	0

Part of the list above in order of molecular weight, largest number first.
SMILES	MT1-MMP act inh	MT1-MMP act inh RFP	Yeast UUG start	eIF4H inh	Env fusion inh	PABP FP inh	Rce1 inh	CSC inhib
CCN(CC(=O)Nc1ccccc1C(F)(F)F)C(=O)COc1cccc2c1OC(C)(C)C2	1	2	7	x	20	x	i	-8
O=C(c1ccc(Cl)nc1)N1CCN(S(=O)(=O)c2ccc(Cl)cc2)CC1	0	3	13	4	1	12	i	30
CCOC(=O)CSC1=C(C#N)C(=O)NC(c2ccc(OC)c(OC)c2)S1 (stereo not given)	5	3	-15	-7	x	-2	i	x

(continued)
SMILES	MT1-MMP act inh	MT1-MMP act inh RFP	Yeast UUG start	eIF4H inh	Env fusion inh	PABP FP inh	Rce1 inh	CSC inhib
Cn1c(NCc2ccccc2)nc2cc(-c3cccc(C(F)(F)F)c3)sc2c1=O	4	-5	-10	x	-3	x	x	x
COc1ccc(CCN(C)c2ncnc3sccc23)cc1OC	2	-9	x	-9	25	-8	i	-11
Cc1cc(C(=O)NCCc2ccc(Cl)cc2)c(C)o1	-1	-1	-6	-10	-50	0	i	15
COc1cccc(OC)c1C(=O)OCCCOC(=O)c1c(OC)cccc1OC	-2	2	-9	-8	x	-17	i	-2
CC1CN(CCCOc2ccccc2[N+](=O)[O-])CC(C)O1 (stereo not given)	-1	-1	-13	-7	-3	1	i	-5
CC1=CC(C)(C(Cl)(Cl)Cl)C(C)=CC1=NO (stereo not given)	-3	-3	13	x	18	x	x	x
COc1ccc(C2C(C(=O)NCc3cccnc3)c3cc(OC)c(OC)cc3C(=O)N2C)cc1 (stereo not given)	0	3	-12	6	22	-5	i	-1
CCc1ccccc1N(CC(=O)N1CCCC1)S(C)(=O)=O	-4	0	-8	-2	-20	-7	i	11
O=C(NN=C(Cc1ccccc1)Cc1ccccc1)c1ccc(F)cc1	2	5	x	12	-10	2	i	-4
C=CCOc1c(CNc2ccc(C(=O)O)cc2)cccc1OCC	-2	-1	-11	-7	-46	-13	i	-16
C[C@]12c3[nH]c4ccccc4c3CCN1C(=O)C(CC(=O)NCC13CC4CC(CC(C4)C1)C3)C[C@@H]2C(=O)N1CCCCC1 (stereo not given in full)	-9	-14	-13	x	25	x	x	52
CC(NS(=O)(=O)c1ccccc1)C(=O)Nc1ccc2c(c1)OCCO2 (stereo not given)	0	2	4	-2	10	3	i	-7
CC(=O)Nc1ccc(S(=O)(=O)NC2(C(F)(F)F)C(=O)Nc3c2c(=O)[nH]c(=O)n3Cc2ccccc2)cc1 (stereo not given)	4	5	x	-2	3	-5	i	1
Cc1ccc(NC(=O)CN(C)C(=O)c2cc(S(=O)(=O)N(C)C)ccc2N2CCCC2)cc1	5	2	x	x	x	x	i	0
Clc1cccc(-c2nc(NCc3cccnc3)c3ccccc3n2)c1	-1	-5	-12	7	25	1	i	28

Another view of some results above:
O=C(NN=C(Cc1ccccc1)Cc1ccccc1)c1ccc(F)cc1
  MT1-MMP act inh = 2
  MT1-MMP act inh RFP = 5
  Yeast UUG start = x
  eIF4H inh = 12
  Env fusion inh = -10
  PABP FP inh = 2
  Rce1 inh = i
  CSC inhib = -4
CC(NS(=O)(=O)c1ccccc1)C(=O)Nc1ccc2c(c1)OCCO2 (stereo not given)
  MT1-MMP act inh = 0
  MT1-MMP act inh RFP = 2
  Yeast UUG start = 4
  eIF4H inh = -2
  Env fusion inh = 10
  PABP FP inh = 3
  Rce1 inh = i
  CSC inhib = -7
CC1CN(CCCOc2ccccc2[N+](=O)[O-])CC(C)O1 (stereo not given)
  MT1-MMP act inh = -1
  MT1-MMP act inh RFP = -1
  Yeast UUG start = -13
  eIF4H inh = -7
  Env fusion inh = -3
  PABP FP inh = 1
  Rce1 inh = i
  CSC inhib = -5
C[C@]12c3[nH]c4ccccc4c3CCN1C(=O)C(CC(=O)NCC13CC4CC(CC(C4)C1)C3)C[C@@H]2C(=O)N1CCCCC1 (stereo not given in full)
  MT1-MMP act inh = -9
  MT1-MMP act inh RFP = -14
  Yeast UUG start = -13
  eIF4H inh = x
  Env fusion inh = 25
  PABP FP inh = x
  Rce1 inh = x
  CSC inhib = 52

(list continues)
SMILES	MT1-MMP act inh	MT1-MMP act inh RFP	Yeast UUG start	eIF4H inh	Env fusion inh	PABP FP inh	Rce1 inh	CSC inhib
CCN(Cc1ccccc1)S(=O)(=O)c1ccc2c(c1)NC(=O)CC(=O)N2	-3	0	x	0	3	1	i	0
CC1(C(=O)NS(=O)(=O)c2ccc(Cl)cc2)CCN1C(=O)CCc1ccccc1 (stereo not given)	-1	0	-3	x	-22	x	x	x
CCc1ccc(OC(=O)Nc2ccccc2)cc1	1	4	-23	-5	-41	2	i	-9
C[C@H](NC(=O)c1nc[nH]c1C(=O)N(C)Cc1ccccc1)c1ccccc1	9	2	-11	x	-43	x	x	-7
O=C(CCNS(=O)(=O)c1ccccc1F)N1CCN(C/C=C/c2ccccc2)CC1	2	0	3	x	-72	x	i	-9
CCN(CC(=O)Nc1c(F)cccc1F)C(=O)CCCN1C(=O)c2ccccc2C1=O	-6	-2	-7	x	6	x	x	x
CCOC(=O)N1CCN(C(=O)COc2ccc(S(=O)(=O)NC3CCCCC3)cc2C)CC1	0	-14	15	-2	x	-6	i	-3

This is a subset; count on the stated rates, not on these rows.
